RanGTP-Impb inh: inhibitors of RanGTP-importin-beta interaction, primary screen, biochemical, FRET, CFP-Ran, YFP-importin-beta, homogeneous; cell-free CFP-Ran/YFP-importin-beta FRET ratio; inhibition, % (concentration not given with the values); 1.1% of 300,000 active; AID 2216, 2009;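 active = most replicates above 15%; inconclusive = exactly half above 15%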;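 also: 0% = DMSO wells and 100% = Ran loaded with GDP instead of GTP; wells of about 40 µL received 100 nL stock; the first replicate is given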
Vif A3G: inhibitors of Vif binding to APOBEC3G peptide, primary screen, biochemical, TR-FRET, GST-Vif 1-94, biotin-A3G peptide, dose response retest (AID 1117319). Virion infectivity factor (Human immunodeficiency virus type 1 group M subtype B (isolate …. TR-FRET GST-Vif / biotin-A3G peptide binding; higher % means a stronger effect; test concentration not given here; strong numbers were not always called active. inhibition, %; hits with a dose series show IC50 in µM. 0.57% of 260,000 active;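 active = above the screen mean plus three standard deviations and confirmed in dose response; inconclusive = results disagree or hit not tested in dose response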;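 also: Vif residues 1-94 fused to GST binding biotinylated APOBEC3G peptide 110-148; 0% = full assay without inhibitor and 100% = GST in place of GST-Vif; retest series ran down from 100 µM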
Bfl-1 A1 inh: caspase 3/7 activation in MEF A1-2A-BIM cells, primary screen, A1 inhibitor project, cell-based, luminescence, HTS; 0.066% of 330,000 active; caspase activation, % (test concentration not listed); Caspase-Glo 3/7 luminescence, 3 h; percent of clofoctol response, vehicle zero;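 active = over half of replicate activation scores above 10%, or exactly half above 10 with the replicate mean above 10; inconclusive = replicate mean below 10 yet half the replicates above 10; inactive = over half of replicates below 10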;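 also: wells of about 30 µL received 50 nL stock; many hits fall short of the cut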
T cruzi repl: inhibitors of intracellular T. cruzi growth, primary screen, luminescence, NIH3T3 host cells. T. cruzi beta-gal in NIH3T3, 90 h. inhibition, % (concentration not given with the values). 1.4% of 300,000 active. AID 1885, 2009;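 active = mean inhibition across valid replicates above about 55%, limit read from the data; inconclusive = mean below that limit but half or more replicates reach it; inactive = mean below it, under half of replicates reach it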;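 also: signal also drops with host cell toxicity which is not excluded here; 0% = plate median of DMSO wells and 100% = zero luminescence signal; higher percent means less beta-gal luminescence so fewer parasites; stock transfer was 50 nL into about 50 µL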
Beta cell apopt: inhibitors of cytokine-induced beta cell apoptosis, primary screen, luminescence; protection from apoptosis, % (concentration not given with the values); 0.8% of 300,000 active; INS-1E cytokine-induced death, ATP luminescence, 48 h; percent of positive-control rescue, neutral wells zero;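 active = all replicates at 75% or more, or half of them and the mean; inconclusive = half reach 75% but not the mean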;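 also: 0% = cytokine-treated negative control wells and 100% = positive control rescue; higher means more ATP so stronger rescue from cytokine killing; wells of about 40 µL received 100 nL stock; the first replicate is given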
MLL AF4-AF9 inh: inhibitors of AF4 peptide binding to AF9, primary screen, biochemical, AlphaScreen, biotin-AF4 peptide, FLAG-AF9, single point; Protein AF-9 (Homo sapiens), P42568; inhibition, % at 10 µM; 0.47% of 350,000 active;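 active = every replicate reaching a set inhibition limit, whatever the replicate mean, cut at about 25% in these data; inconclusive = mean inhibition reaches that limit but some replicates miss it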;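 also: 0% = plate neutral control median and 100% = total signal loss; the record names both 10 and 1 µM as test concentration; the first replicate is given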
Target sequence (P42568 whole entry, looked up): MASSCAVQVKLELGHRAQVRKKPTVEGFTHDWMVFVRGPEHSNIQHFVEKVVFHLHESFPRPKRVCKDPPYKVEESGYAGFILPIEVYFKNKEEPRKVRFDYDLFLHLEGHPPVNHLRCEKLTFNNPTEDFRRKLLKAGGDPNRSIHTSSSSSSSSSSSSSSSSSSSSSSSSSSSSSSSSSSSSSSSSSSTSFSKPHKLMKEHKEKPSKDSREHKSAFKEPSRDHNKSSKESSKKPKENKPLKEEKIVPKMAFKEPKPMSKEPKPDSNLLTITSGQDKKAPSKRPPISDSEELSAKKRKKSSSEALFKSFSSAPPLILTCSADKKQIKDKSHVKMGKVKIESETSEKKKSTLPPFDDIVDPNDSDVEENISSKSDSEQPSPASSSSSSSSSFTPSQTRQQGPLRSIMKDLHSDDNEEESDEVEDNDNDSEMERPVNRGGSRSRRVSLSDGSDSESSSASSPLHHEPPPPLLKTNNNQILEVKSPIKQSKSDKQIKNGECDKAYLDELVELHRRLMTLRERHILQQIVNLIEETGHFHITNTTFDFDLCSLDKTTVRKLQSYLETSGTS
LANA-H2B inh: blockers of LANA interaction with H2A/H2B – biochemical, FP readout, HTS, primary screen; Protein LANA1 (Human herpesvirus 8 type P (isolate GK18)), Q9QR71; cell-free LANA-H2A/H2B peptide, fluorescence polarization; inhibition, % (test concentration not listed); 0.6% of 320,000 active; in the data active = inhibition mostly above about 10%, no sharp cut-off; inactive = mostly below about 6.7%;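 also: stock transfer was 7.5 nL into about 10 µL; 0% = median of vehicle wells and 100% = median of positive control wells; one replicate is shown; the record names a cut of 25% in any replicate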
Calb FLC: C. albicans growth inhibition with fluconazole, primary screen, CaCi-2 strain, Alamar Blue fluorescence; 0.57% of 300,000 active; AID 1979, 2009; C. albicans CaCi-2 (fluconazole-resistant clinical isolate) + fluconazole, 48 h; growth inhibition, % (no concentration beside the values);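 active = most replicates above 75%; inconclusive = exactly half above 75%; inactive = most below 75%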;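 also: all wells also contain fluconazole at 8 µg/ml as a sub-toxic cotreatment; 0% = median of DMSO wells and 100% = median of geldanamycin control wells; wells of about 8 µL received 7.5 nL stock; the first replicate is given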
An asterisk follows results filed as active; ? = inconclusive; . = not tested or not shown; & = joins results of further samples. Compounds as they come. Share with any hit: about 4.3%.

SMILES	RanGTP-Impb inh	Vif A3G	Bfl-1 A1 inh	T cruzi repl	Beta cell apopt	MLL AF4-AF9 inh	LANA-H2B inh	Calb FLC
CCC(=O)Nc1cccc(-c2ccc(N3CCCCC3)nn2)c1	-0.2	1%	-13	5	8	-11	-3.4	0
COC(=O)c1ccc2c(=O)[nH]c(COC(=O)c3[nH]c(C)c(C(C)=O)c3C)nc2c1	.	3%	0.3	.	-3	-3.8	6.1	.
Cn1c(SCC(=O)Nc2nncs2)nnc1C1CC1	5.5	.	-2.6	-21	.	-2.9	-1.6	0
Cc1cc(C)cc(C(=O)NCC(=O)OCC(=O)N2CCCCC2)c1	2.6	-8%	-0.1	-4	4	0.3	-4.3	-2
CN1C(=O)S/C(=C/c2cccn2-c2cccc(C(=O)O)c2)C1=O	-0.4	6%	-0.9	0	-3	-3.1	7.9	?
O=C(CSC1=NC(=O)C(c2ccccc2)C(=O)N1)Nc1cccc(Cl)c1 (stereo not given)	4.5	?	0.7	-15	-7	.	0.0	3
Cc1[nH]nc(C(F)(F)F)c1CCC(=O)NC1CCCCCC1	.	.	0.1	.	-1	2.7	-0.3	.
O=C(COc1ncnc2ccccc12)N1CCN(c2ccccc2)CC1	-3.0	7%	-0.3	-10	0	-2.1	5.8	23
CCCCn1nc(C(=O)Nc2c(C)n(C)n(-c3ccccc3)c2=O)c2ccccc2c1=O	.	0%	2.1	.	-4	?	3.2	.
Cc1ccc(S(=O)(=O)Cc2cc(F)c([N+](=O)[O-])cc2[N+](=O)[O-])cc1	4.1	.	-1.1	0	.	.	0.5	2
CCN(CC)c1ccc(CNc2nc3ccccc3n2CCN2CCCCC2)cc1	4.6	31%	-0.3	60*	88*	44*	-3.8	-27
CCO/C=C/C(=O)N(C)CCC#N	-2.0	-4%	-0.4	-1	4	.	-0.2	-8
O=C(O)/C=C/c1cn(-c2ccccc2)nc1-c1ccc(-c2ccc([N+](=O)[O-])cc2)o1	-80	-5%	-0.8	2	-8	6.3	-5.9	-7
COCc1cc(C)nc2sc(C(=O)Nc3cccc(OC)c3)c(N)c12	5.2	.	-0.4	-6	-2	-10	-3.6	4
Cc1nn(C)c(C(=O)Nc2ccc(Cl)c([N+](=O)[O-])c2)c1Cl	0.2	0%	0.6	-8	7	.	-1.4	-48
Cc1ccc(-c2csc3nc(CSc4nnc(-c5ccc(Cl)cc5)n4C)[nH]c(=O)c23)cc1	2.1	31%	0.3	-6	-2	.	5.6	-8
N#Cc1nc(COc2cccc(Cl)c2)oc1NCc1ccco1	2.8	11%	0.4	48	.	8.6	0.3	-2
CCN1CCN(S(=O)(=O)c2ccc3[nH]c(=O)oc3c2)CC1	3.7	14%	0.1	2	2	-8.6	-0.6	6
CC1(C)CC(=O)C2=C(C1)Nc1cc(C(=O)c3ccccc3)ccc1NC2c1ccccn1 (stereo not given)	6.0	2%	-0.1	-30	-4	-3.8	2.7	1
CCOc1ccc(S(=O)(=O)N2CCN(c3ccccc3OC)CC2)c2cccnc12	-2.6	10%	-2.3	-7	-3	.	-1.3	-7
CC(C)c1ccc(NC(=O)C2CC(=O)N=C(N)S2)cc1 (stereo not given)	-2.0	5%	0.9	2	-4	.	-5.2	3
CC(C)c1cc(C(=O)N2CCCC(Nc3ccc(F)c(F)c3)C2)nc(N)n1 (stereo not given)	-2.9	.	-0.2	12	0	0.1	0.6	10
CCOC(=O)c1c(-c2ccc(OC)cc2)csc1NC(=O)CCN1CCOCC1	.	-12%	0.8	.	-3	3.9	1.2	-7
Cc1ccc(N=C2NC(=O)/C(=C/c3cccs3)S2)cc1C	-3.4	-6%	0.0	-1	1	.	0.7	-3
COc1ccc(C(=O)COC(=O)CN2C(=O)C3CC=CCC3C2=O)c(OC)c1 (stereo not given)	.	.	0.1	.	-8	2.6	2.5	.

New compounds follow
SMILES	RanGTP-Impb inh	Vif A3G	Bfl-1 A1 inh	T cruzi repl	Beta cell apopt	MLL AF4-AF9 inh	LANA-H2B inh	Calb FLC
CC(CNC(=O)CN1C(=O)NC2(CCOc3ccccc32)C1=O)c1ccccc1 (stereo not given)	.	-1%	1.3	.	-12	-1.8	-0.9	.
S=c1nc[nH]c2c1cnn2-c1ccccc1	8.1	-5%&-20%	-2.2	-10	8	-1.1	-4.1	5
CCOC(=O)CN(C(=O)CNC(=O)c1ccco1)C(C(=O)NC1CCCCC1)c1cccnc1 (stereo not given)	-2.9	.	1.0	-16	-2	-15	-2.6	-2
CN(C(=O)CSc1nnc(Cc2ccccc2F)n1N)C1CCS(=O)(=O)C1 (stereo not given)	-1.0	8%	-0.3	5	-9	.	2.8	-3
Cc1ccc(S(=O)(=O)N2CCN(C(=O)NCc3ccc(F)cc3)CC2)c(C)c1	-1.1	-7%	1.0	-3	0	-0.7	-3.4	-5
CC(=O)c1ccc(N2CCN(C(=O)[C@H](C)NC(=O)c3ccccc3Cl)CC2)cc1	0.1	.	0.7	-1	1	0.5	5.3	-8
Cc1oc(-c2ccccc2F)nc1CN1CCC(C(=O)NC2CCCCCCC2)CC1	-2.3	5%	.	10	.	.	.	-28
O=C(COC(=O)c1cccnc1Cl)c1ccc(Cl)cc1Cl	4.4	?	-0.2	-6	-3	.	-1.7	1
Cc1ccccc1C(=O)N1CCC(C(=O)Nc2ccc(C(C)C)cc2)CC1	?	.	-0.7	13	1	1.6	-0.3	-1
CCOc1ccc(C2C=C(c3ccc(F)cc3)Nc3ncnn32)cc1 (stereo not given)	-6.5	-7%	0.2	-8	-5	.	-4.7	5
CS(=O)(=O)N(CC(=O)NCC1CCCO1)c1cc(Cl)ccc1Cl (stereo not given)	-4.8	5%	-0.2	.	-5	.	2.2	-4
COc1ccc(-n2cnnc2SCC(=O)NCc2cccs2)cc1	1.1	2%	0.1	8	-7	.	2.7	-2
CCOc1ccc(N(CC(=O)NCc2ccccc2Cl)S(=O)(=O)c2c(C)noc2C)cc1	6.7	0%	0.0	31	-3	-3.1	3.0	7
Cc1ccc(-c2cc(C(=O)OCC(=O)N(C)c3c(N)n(Cc4ccccc4)c(=O)[nH]c3=O)c3ccccc3n2)o1	-3.9	-2%	-0.1	-5	-2	-13	-0.7	12
Cc1ccc(C(OC(=O)c2ccco2)C(=O)NCc2cccs2)cc1 (stereo not given)	-0.7	1%	0.5	-2	-11	.	2.4	-2
Cc1ccc(S(=O)(=O)N2CCCC(NC(=O)N3CCN(c4ccccc4)CC3)C2)cc1 (stereo not given)	?	4%	-1.1	-11	0	.	4.0	1
COc1cc(NS(=O)(=O)c2cc3[nH]c(=O)c(=O)[nH]c3cc2C)cc(OC)c1OC	0.6	10%	.	-2	.	6.1	.	13
CCCCC(C(=O)NC(=O)NCc1ccccc1)N1C(=O)c2ccccc2C1=O (stereo not given)	?	-1%	1.3	6	1	.	-0.9	1
O=C(CC(c1ccc(F)cc1)c1ccco1)N1CCOCC1 (stereo not given)	?	4%	-0.8	-11	-14	.	3.0	1
Cc1nc(C(=O)N2CCC(n3nccc3NC(=O)Nc3ccccc3Cl)CC2)cs1	5.1	.	-0.1	7	-1	1.5	0.4	1
COc1ccc(C2C(C(=O)N3CCCCC3)CC(=O)N2c2ccc(OC)cc2)cc1 (stereo not given)	1.4	7%	-0.9	14	-6	.	2.2	3
Cc1ccc(OCc2ccc(C(=O)Nc3nc4ccccc4n3Cc3ccccc3)o2)c([N+](=O)[O-])c1	2.1	2%	-0.2	43	0	.	3.0	12
COc1ccc(OC)c(CNC(=O)c2ccc(C)c(NC(=O)C3=C(C)OCCS3)c2)c1	1.4	-3%	0.2	-1	-3	5.6	-0.5	22
CCSc1nnc(NC(=O)CSc2nnc(CNC(=O)c3ccc(OC)cc3)o2)s1	2.1	-17%	0.2	-8	-1	.	-3.0	1
CC(C)(C)n1nnnc1CN1CCSCC1	2.1	3%	-0.8	-15	.	.	-1.5	1

(further entries)
SMILES	RanGTP-Impb inh	Vif A3G	Bfl-1 A1 inh	T cruzi repl	Beta cell apopt	MLL AF4-AF9 inh	LANA-H2B inh	Calb FLC
C=CCSc1nnc2c(n1)OC=Nc1ccc(Br)cc1-2	-1.7	-9%&7%	-0.1	-18	-1	.	0.7	-19
O=C(Nc1ccc(O)cc1)c1cc(S(=O)(=O)N2CCCC2)ccc1Cl	?	17%	-1.1	11	-4	.	0.9	1
CCOC(=O)c1cccc(NC(=O)CSc2nc3ccccc3c(=O)n2CCOC)c1	.	21%	-0.1	.	0	.	4.8	.
S=C(NNc1ccnc2cc(Cl)ccc12)Nc1ccc(Cl)cc1Cl	-3.3	5%	0.6	45	15	-6.3	5.4	19
Cc1nn(CC(=O)O)c(C)c1[N+](=O)[O-]	-3.1	.	0.2	-3	0	-0.7	-1.0	-5
CC1(OC(=O)C2CCCC2)C(=O)C=C2C=C(c3ccsc3)N(CCc3ccccn3)C=C2C1=O (stereo not given)	1.9	.	-0.5	7	1	-2.1	-4.3	14
CC(=O)N1CCN(c2ccc(NC(=O)c3ccc(C(C)(C)C)cc3)cc2)CC1	2.7	1%&1%	-0.2	12	8	9.8	1.7	109*
Cc1nnsc1NC(=O)OCc1ccc(C(F)(F)F)cc1	1.4	5%	0.0	-10	-1	.	10	-8
CC(C)Cc1nnc(NC(=O)CCC(=O)Nc2ccc(Cl)cc2)s1	3.0	3%	-0.1	13	-1	-0.3	0.0	-8
Cc1c(NC(=O)c2cnn3c2NC(c2ccccc2)CC3C(F)(F)F)c(=O)n(-c2ccccc2)n1C (stereo not given)	2.4	-4%	0.4	4	-3	.	-7.2	-21
O=C(NC(=S)NCC1CCCO1)c1cccs1 (stereo not given)	-0.7	-13%	-0.1	-4	0	0.4	7.4	-8
O=C(NC1CC1)C1CC(=O)N(C2CCCCC2)C1 (stereo not given)	?	-3%	0.5	1	-3	-23	0.9	19
CC(C)(CNCc1ccccc1)NS(=O)(=O)c1ccccc1	.	.	-0.2	.	3	-7.5	-7.0	.
Cc1nn(-c2ccccc2)nc1C(=O)Nc1ccc2c(c1)OCCO2	-3.3	.	0.3	-4	-8	-1.8	-1.5	23
Cc1cccc(NC(=O)CC2C(=O)NCCN2C(=S)Nc2ccccc2)c1 (stereo not given)	-3.0	1%	-0.3	-22	-8	.	2.2	-2
C=CCn1c(=O)c2c(nc3n2CC(C)CN3CCc2ccccc2)n(C)c1=O (stereo not given)	-2.6	.	-0.5	15	3	4.7	0.1	-4
Cc1ccc(S(=O)(=O)NC(C)C(c2cccs2)N2CCN(c3ccccc3)CC2)cc1 (stereo not given)	0.5	3%	-0.4	28	-9	1.6	0.8	0
O=C(CCCCCN1C(=O)c2ccccc2C1=O)NCc1ccccn1	?	-11%	0.7	-25	1	.	-2.6	-2
CC1=Nc2cc(C(=O)NCCCOC(C)C)ccc2Sc2ccc(C)cc21	0.2	-14%	1.1	28	6	.	-0.2	-5
